# AID504770: growth inhibitors of E. coli YBA685 in a screen for V. cholerae RctB (chromosome II replication) inhibitors; E. coli YBA685 rctB-dependent plasmid, OD600 growth, 3 h; stronger effect = lower value; z-score (test concentration not listed); 130,000 compounds, 0.27% hits; AID 504770;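 active = z-score under -2 on both plates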;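 also: wells of about 30 µL received 100 nL stock; score is relative to mean and SD of the test wells; the first replicate is given; strong numbers were not always called active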
# Ba CapD inh: CapD enzyme inhibition; purified CapD enzyme, fluorescence intensity read-out; stronger effect = lower value; some hits fall short of the stated cut; z-score (concentration not given with the values); 140,000 compounds, 0.23% hits; AID 492967;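 active = z-score under -4 in either of two replicates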;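 also: stock transfer was 100 nL into about 40 µL; score is relative to mean and spread of the plate; one replicate is shown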
# Active calls of the source: *; x = no result given; & = joins results of further samples.
# Sample of the layout:
No.	smiles	AID504770	Ba CapD inh
1	CC(C)(C)c1nc(CN2CCOCC2)cc(CN2CCOCC2)c1O	-0.1	x
2	N#CC(C(=O)c1ccc(F)cc1)c1nc2ccccc2c(=O)[nH]1 (stereo not given)	0	-0.855

# The listing, repeating the preview:
No.	smiles	AID504770	Ba CapD inh
1	CC(C)(C)c1nc(CN2CCOCC2)cc(CN2CCOCC2)c1O	-0.1	x
2	N#CC(C(=O)c1ccc(F)cc1)c1nc2ccccc2c(=O)[nH]1 (stereo not given)	0	-0.855
3	CN(C)c1ccc(NC(=O)c2cccs2)cc1	0.25	-1.4
4	COc1ccc(C2=NN(C(=O)c3ccccc3)C(c3cccc([N+](=O)[O-])c3)C2)cc1 (stereo not given)	x	-0.26
5	CC(C(=O)O)c1ccc(N)cc1 (stereo not given)	-0.4	0.235
6	COc1cc(C=C2C(=O)NC(=S)NC2=O)cc(Cl)c1OCCOc1ccccc1	x	-0.47
7	COC(=O)c1ccc(N2C(=O)Cc3c2nc(N)c2c(N)nc(N(C)C(C)C)c(C#N)c32)cc1	1.9	x
8	N#C/C(=C1/CCCCCN1)c1nc2ccccc2[nH]1	1	-0.29
9	Cc1ccc(S(=O)(=O)NC(C)C(=O)O)cc1 (stereo not given)	0.2	-0.085
10	CC(C)(C)n1cnnc1SCc1c(Cl)cccc1Cl	x	-0.875

# Entries from the list above with a Cl atom (two):
No.	smiles	AID504770	Ba CapD inh
6	COc1cc(C=C2C(=O)NC(=S)NC2=O)cc(Cl)c1OCCOc1ccccc1	x	-0.47
10	CC(C)(C)n1cnnc1SCc1c(Cl)cccc1Cl	x	-0.875

# Later entries
No.	smiles	AID504770	Ba CapD inh
11	N#Cc1ccc(NC(=O)CNCC2CCCCC2)cc1	0.85	x
12	Cc1c(NC(=O)Cc2ccc(S(=O)(=O)N3CCCCC3)cc2)c(=O)n(-c2ccccc2)n1C	-0.1	x
13	CN(C)c1ccc(C2Nc3ccccc3C(=O)N2c2ccc(Br)cc2)cc1 (stereo not given)	x	8.06
14	CC(O)CNc1nc2ccccc2n1CC(O)COCc1ccco1 (stereo not given)	1.55	x
15	CCN1C(=O)c2cccc3c(S(=O)(=O)N4CCC(Cc5ccccc5)CC4)ccc1c23	x	-1.54
16	OC12OC34CCCCC3CC13CCCC2CC1CCCCC13O4 (stereo not given)	x	-0.2
17	CNC(=O)c1c(O)c2cccc3c2n(c1=O)CCC3	1.15	23.2
18	CCOC(=O)c1c(N)sc2c1CCN(C(=O)OCC)C2	2.15	0.28
19	CC(=O)N(C(C)=O)N1C(=O)C2C3c4ccccc4C(c4ccccc43)C2C1=O (stereo not given)	x	-0.735
20	CCOc1ccc2nc(N3CCC(C(=O)NC)CC3)sc2c1	-0.4	0.305
21	COc1cc(C2C3=C(CC(C)(C)CC3=O)Nc3ccc4ccccc4c32)ccc1O (stereo not given)	x	83.7
22	c1ccc(N2CCN(c3nc(NCc4ccco4)c4ccccc4n3)CC2)cc1	x	6.75
23	O=c1c2ccccc2[nH]c(=S)n1CC1CCCO1 (stereo not given)	-0.2	0.17
24	C/[N+]([O-])=C\c1coc2ccccc2c1=O	-1	-0.225
25	CCOC(=O)c1ccc(-c2ccc(/C=c3/sc4nc5c(C)c(C)ccc5n4c3=O)o2)cc1	0.25	-0.57
26	CCOC(=O)c1sc2nc(CC(=O)OC)nc(NCc3cccnc3)c2c1C	x	83.8
27	O=C1CSC(c2ccccc2)N1Cc1ccccn1 (stereo not given)	-0.25	x
28	Cc1cc(C)n(-c2ccc(C(=O)NC3CCCCC3)cc2)n1	1.15	-0.62
29	Cc1c(C)c(C)c2[nH]c(-c3ccc4c(c3)OCO4)nc2c1C	-0.4	64.9
30	COc1ccc(S(=O)(=O)n2c(SCC(=O)Nc3ccc(Oc4ccccc4)cc3)nc3ccccc32)cc1	x	0.335
31	S=C(NC1CCCCC1)N1CCCCCC1	1.05	-0.355
32	Cc1ccc(CSc2nc3c(c(Sc4ccccc4)n2)CCCC3)cc1	x	-0.495
33	COC(=O)c1ccc(C(c2c(N)n(C)c(=O)n(C)c2=O)N2CCN(c3ccccc3)CC2)cc1 (stereo not given)	-0.7	x
34	Cn1c(-c2sccc2OCc2cccc(C(F)(F)F)c2)n[nH]c1=S	x	5.46
35	CCOC(=O)c1c(CN(CC)CC)n(C)c2cc(Br)c(OC)cc12	-0.55	-0.605
36	Cc1ccc(CNc2ncnc3c2oc2ccccc23)cc1	0.1	x
37	CCOc1cc(C2C(C(=O)OC)=CN(Cc3ccc(OC)c(OC)c3)C=C2C(=O)OC)ccc1O	x	12.2
38	CC1(C)Cc2c(sc3nc(-c4ccccc4)oc(=O)c23)CO1	x	-1.25
39	Cc1ccc(S(=O)(=O)N(C)S(=O)(=O)c2ccc(C#N)cc2)cc1	-0.75	x
40	CN1CCN(CCC(=O)N/N=C/c2ccccc2)CC1	1.75	-0.505
41	NNC(=O)Cn1nnc(-c2ccc(C(F)(F)F)cc2)n1	x	-0.66
42	O=C(NCN1CCCCC1)Nc1cccc(Cl)c1	-0.65	x
43	CC1CCCCC1NC(=O)Cn1nnc(-c2ccc(N(C)C)cc2)n1 (stereo not given)	2.25	x
44	CCOc1ccc(-n2c(SCC(N)=O)nc3sc4c(c3c2=O)CCCC4)cc1	x	3.21
45	COc1nc(OC)nc(N2CCC(C(=O)NC3CCCCCC3)CC2)n1	0.75	x
46	O=C(Nc1ccc(Cl)c(-c2nc3ccccc3o2)c1)c1cc([N+](=O)[O-])ccc1Br	x	1
47	CC(=O)NC1=NN(C(C)=O)C(c2cccc([N+](=O)[O-])c2)O1 (stereo not given)	x	0.095
48	Cc1ccc(-c2noc(CCCCCN)n2)cc1	0.45	x
49	O=C(NC1Cc2ccccc2C1)c1ccc2nonc2c1	1.25	0.335
50	CC(C)(C)OC(=O)N1CCC(C(=O)OCC(=O)c2ccc3c(c2)CCC3)CC1	-0.35	x

# Entries of single compounds from above. Values in the order: AID504770	Ba CapD inh
# Shown for COc1ccc(S(=O)(=O)n2c(SCC(=O)Nc3ccc(Oc4ccccc4)cc3)nc3ccccc32)cc1 : x	0.335
# Shown for CC1(C)Cc2c(sc3nc(-c4ccccc4)oc(=O)c23)CO1 : x	-1.25
# Shown for COc1cc(C=C2C(=O)NC(=S)NC2=O)cc(Cl)c1OCCOc1ccccc1 : x	-0.47
# Shown for O=C(Nc1ccc(Cl)c(-c2nc3ccccc3o2)c1)c1cc([N+](=O)[O-])ccc1Br : x	1
# Shown for COC(=O)c1ccc(C(c2c(N)n(C)c(=O)n(C)c2=O)N2CCN(c3ccccc3)CC2)cc1 (stereo not given) : -0.7	x

# More entries follow:
No.	smiles	AID504770	Ba CapD inh
51	O=C(NCCc1ccccc1Cl)c1cc(S(=O)(=O)N2CCc3ccccc32)ccc1F	x	-0.59
52	COc1cc(C(=S)N2CCCC2)cc(Cl)c1O	-0.75	-0.33
53	N#C/C(=N\Nc1ccc(F)cc1)S(=O)(=O)c1ccc(Cl)cc1	x	-2.46
54	CCN(CC)C(=O)c1cc(-c2ccc(OC)c(OC)c2)on1	-0.3	-0.025
55	CCCc1n(CC(O)COCC2CC=CCC2)c2ccccc2[n+]1C (stereo not given)	-0.4	-0.305
56	O=C(N/N=C/c1ccccc1)c1n[nH]c(=O)c2ccccc12	1.45	x
57	O=[N+]([O-])c1cc(C(F)(F)F)ccc1Oc1ccc(SC(F)(F)F)cc1	x	-0.625
58	O=c1ccnc(SCc2ccc(CSc3nccc(=O)[nH]3)cc2)[nH]1	1.7&0.15	0.47
59	CCc1ccccc1OCCSc1ncccn1	-0.6	-0.58
60	CC(N)C(=O)Nc1ccc2c(c1)Cc1ccccc1-2 (stereo not given)	-1.1	3.27
61	O=S(=O)(c1ccc(Cl)cc1)N1CN(Cc2cccs2)c2nc3ccccc3nc21	-0.5	x
62	CC(Oc1cc(C(F)(F)F)cc(C(F)(F)F)c1)C(=O)NC(N)=O (stereo not given)	-0.3	x
63	Cc1ccc(-c2nc3ncccn3c2NC(=O)c2cccc(C(F)(F)F)c2)cc1	0.2	-0.23
64	Cn1c(=O)cc(OCC(=O)NCC2COc3ccccc3O2)c2ccccc21 (stereo not given)	0.95	-0.215
65	O=C1/C(=C/c2ccco2)CCc2ccccc21	-0.05	-0.645
66	Cc1cccc(NC(=O)COC(=O)c2cc(C)oc2C)c1	-0.35	x
67	CC(O)c1cc2ccccc2o1 (stereo not given)	-0.65	x
68	COc1cc2c(=O)n(Cc3ccccc3)c(=O)n(CC(=O)N3CC(C)CC(C)C3)c2cc1OC (stereo not given)	-1.7	0.375
69	C1CCN(CCC2CCNCC2)CC1	0.4	x
70	CCOc1ccc(NC(=O)c2c3c(nc4ccccc24)CCCC3)cc1	0.5	0.13
71	Cc1ccc(-c2nnc(-c3ccccc3SCc3ccc(Cl)cc3)o2)cc1	x	0.33
72	CC1CCCC(C)N1CC(O)c1ccccc1 (stereo not given)	0.15	0.575
73	Cc1ccccc1C(=O)[C@@H]1[C@@H](c2ccccc2)C(C#N)(C#N)[C@H]2C=Cc3cc(Cl)ccc3N12	x	6.94
74	Clc1ccc(COC(Cn2ccnc2)c2ccc(Cl)cc2Cl)c(Cl)c1 (stereo not given)	0.5	-0.075&-0.575
75	CCCN1CCC(N(C(=O)c2cccc(NC(=O)c3ccc(Cl)nc3)c2)C2CC2)CC1	x	-0.21
76	CCc1cc2c(=O)c(-c3nc4ccccc4s3)c(C)oc2c(CN(C)C)c1O	2.15	0.695
77	Cn1c(=N)n(CCO)c2ccccc21	0.35	-0.06
78	O=c1ccc2ccccc2o1	-0.05	x
79	COc1ccc(N2C(=O)C3C(C2=O)N2CCCN2C3c2ccc(Cl)cc2)cc1 (stereo not given)	x	-0.53
80	Brc1cncc(Br)c1	-1.15	x
81	C/C(=N\O)c1ccc2c3ccccc3n(C)c2c1	-0.25	81.1
82	CN(C)S(=O)(=O)c1ccc(C(=O)Nc2nnc(C3CC3)o2)cc1	1.9	x
83	COCCNC(=O)c1cc(-c2ccccc2O)no1	0.85	-1.88
84	O=C1CC2(O)CCC1(c1ccccc1)CC2	0.5	0.335
85	CCCN1CCC(N(C(=O)c2ccc(NC(=O)c3cc(Cl)nc(Cl)c3)cc2)C2CC2)CC1	x	-0.535
86	CCc1cc2c(=O)n3c(nc2s1)-c1[nH]c2ccc(OC)cc2c1CC3	x	0.3
87	COc1ccc(C=Nc2c(C)n(C)n(-c3ccccc3)c2=O)cc1Br	x	-0.05
88	NNC(=O)CCc1ccc(O)cc1	-0.05	0.735
89	CCC1Oc2ccc(C)cc2N(CC(=O)Nc2ccc3c(c2)OCCO3)C1=O (stereo not given)	1.65	x
90	CC1CN(Cn2c(=S)oc3ccccc32)CC(C)O1 (stereo not given)	-0.9	x
91	O=C(Cc1ccc(Cl)cc1)Nc1cccc(-c2nc3cc4ccccc4cc3[nH]2)c1	-0.35	-0.62
92	COc1cc(/C=N/N=C2/SC(CC(=O)O)C(=O)N2C)cc(OC)c1OC (stereo not given)	0.4	-1.83
93	CC(CN1CCCCC1)OC(=O)c1ccc2c(c1)OCCO2 (stereo not given)	-1.05	-1.04
94	NC(=O)C1C(=O)NC(c2ccccc2)=CC1c1ccc(Cl)cc1 (stereo not given)	-0.2	-0.065
95	Cn1c(C(=O)OCC(=O)NC2CCCCC2)cc2sccc21	0.6	x
96	CC1Cc2ccccc2N1CC(=O)N1Cc2ccccc2C1 (stereo not given)	-0.85	x
97	CSc1sc(C(C)=O)c2c1C(=O)CC(C)(C)C2	x	-1.82
98	Cc1nn(C(=O)C23CC4CC(CC(C4)C2)C3)c(C)c1Sc1ccccc1	0.2	0.005
99	O=C(O)c1c[nH]c2ccc(S(=O)(=O)N3CCOCC3)cc2c1=O	x	5.44
100	Cc1ccc(CCOC(=O)NC(CC(N)=O)C(=O)OC(C)(C)C)cc1 (stereo not given)	x	-0.58

# (continued)
No.	smiles	AID504770	Ba CapD inh
101	COC(=O)C1(C(=O)OC)CC=CC1	-1.7	-0.105
102	O=C(Nc1ccccc1)c1ncc[nH]1	0.15	-0.365
103	CCOC(=O)c1c(-c2ccccc2)oc2ccc(NS(=O)(=O)c3ccc(CC)cc3)cc12	0.5	0.435
104	Fc1cnc(Nc2ccc3c(c2)OCO3)nc1Nc1ccc2c(c1)OCO2	2.35	0.225
105	CCOC(CNC(=O)c1c[nH]c2ccc(S(=O)(=O)N(C)c3ccccc3CC)cc2c1=O)OCC	x	1.6
106	COc1cccc(C(=O)SC2=NCCS2)c1	2.8	-2.19
107	O=C(Nc1ccc(-c2nc3ccccc3s2)cc1)C1CCCO1 (stereo not given)	1.9	68.4
108	CC1(C)OC2OC(C(=O)NC(CCC(=O)O)C(=O)O)C3OC(C)(C)OC3C2O1 (stereo not given)	x	-0.18
109	N#Cc1cc2c(nc1SCC(O)COc1ccc(Cl)cc1)CCCC2 (stereo not given)	x	2.7
110	O=C(NCCC1CCCC1)c1cccs1	-0.55	x
111	Cc1cc(C)nc(SCC(=O)OCC(=O)Nc2sccc2C#N)n1	1	x
112	CCOC(=O)C1=C(N)OC2=C(C(=O)CC(C)(C)C2)C1c1ccc(OC)c(OC)c1 (stereo not given)	x	0.035
113	CCOC(=O)c1nnn2c1nc(N(Cc1ccccc1)Cc1ccccc1)c1ccccc12	0.2	51.9
114	O=C(O)C1C2CCCC(CC2)C1C(=O)O (stereo not given)	0.6	-0.24
115	CC1CN(C(=O)CNc2ccccc2C(=O)NCc2ccccc2)CC(C)O1 (stereo not given)	-0.95	x
116	COc1ccc(N/C=C(\C(C)=O)c2ccc(OC)c(OC)c2)cc1OC	x	-0.935
117	CC(NC(=O)c1ccccc1)c1nc2ccccc2n1CC(=O)NC(=O)NC(C)(C)C (stereo not given)	0.6	x
118	COc1ccc(C2CC(=O)C3=C(C2)NC(C)=C(C(=O)OC2CCCC2)C3c2cccc(OC)c2OC)cc1OC (stereo not given)	x	21.9
119	OC(CSCc1ccccc1)(c1ccc(F)cc1)c1ccc(F)cc1	x	-0.15
120	Cc1ccc(NC2C=CS(=O)(=O)C2)cc1 (stereo not given)	-0.8	-0.89
121	O=C(O)c1cc(NS(=O)(=O)c2ccc3ccccc3c2)ccc1O	-0.35	-1.62

# Source: PubChem
